# Compound activity (PubChem BioAssay)
# NPYLR7 ag: activates Aedes aegypti NPYLR7 receptor | HEK293T NPYLR7/Galpha15, GCaMP6s calcium fluorescence | activation, % at 10 µM | hit rate 0.15% among 270,000 | AID 1259423; in the data active = activation above about 40%;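 note: 0% = vehicle and 100% = reference agonist at the receptor; some compounds past the cut are filed as inactive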
# NPYLR7 ag max-min: second read-out of NPYLR7 ag, no call of its own (marks repeat the call); activation, %; measured here: Max-Min RFU normalised activation; some inactives read as strong as hits;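 span of the calcium signal over five minutes; 0% = vehicle and 100% = native peptide agonist; compound fluorescence can raise it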
# Starred values were filed as active, the others as inactive. Some of the compounds tested. The share of hits here may be higher or lower than overall.
molecule,NPYLR7 ag max-min,NPYLR7 ag
CCc1nc(CCNc2ncnc(-n3cccn3)c2N)sc1C,2,4
Cc1cc(C(=O)N(Cc2ccccn2)c2nc3ccc(F)cc3s2)n(C)n1,9,8
COc1cc(/C=C2\N=C(c3cccc(C)c3)OC2=O)cc(OC)c1OC,-5,1
CCOC(=O)c1c(NC(=O)COc2ccccc2)sc(C(=O)Nc2ccccc2OC)c1C,1,-6
Cn1c(CN2CCCC(CCC(=O)Nc3ccc(C(F)(F)F)cc3)C2)nc2ccccc21 (stereo not drawn),10,21
CC(=O)N1CCCC(c2nnc(Cc3ccccc3)s2)C1 (stereo not drawn),-1,-5
Cc1ccc(C(=O)N2CCN(c3nccc(-c4ccc(N5CCOCC5)cc4)n3)CC2)cc1C,19,13
COc1ccc(C2(C(=O)N3CCc4c(nc(C)[nH]c4=O)C3)CCCC2)cc1,6,8
CC(COc1cccc(F)c1)NC(=O)c1ccc(Cl)s1 (stereo not drawn),1,3
Cc1c(C(=O)N2CCc3ccccc3C2)cnc2c(-c3cccc(C(F)(F)F)c3)cnn12,-11,2
CCn1c(CN(C)C2CCC(C)CC2)nc2cc(S(=O)(=O)N(C)C)ccc21 (stereo not drawn),17,10
CCC(C)CN(CC(=O)N1CCc2sccc2C1COc1ccc(C)cc1C)C(=O)Nc1ccc(C)cc1 (stereo not drawn),5,-3

molecule,NPYLR7 ag max-min,NPYLR7 ag
CC(=O)N1CCN(C(=O)c2ccc3nc(C)c(N(C)C(=O)CCc4ccccc4)n3c2)CC1,14,20
CCC1CN(C(=O)CCC(=O)c2ccc(F)cc2)Cc2ccc(Cl)cc2O1 (stereo not drawn),8,20
CC(C)N(CC(=O)N(CCc1c[nH]c2ccccc12)Cc1ccc(C(F)(F)F)cc1)C(=O)c1ccc(Br)cc1,28,19
CCCCCCCC(=O)N(CC)CC(=O)N1CC(=O)N(c2ccc(Cl)cc2)C1,-2,-7
COCc1nnc(C(=O)N2CCC(O)(CN3CCCC3)CC2)o1,1,4
C=CCN(CC(=O)N1CCc2sccc2C1c1ccc(C(C)(C)C)cc1)S(=O)(=O)c1ccc(OC)cc1 (stereo not drawn),21,23
CC(C)(C)C(=O)[C@@H]1[C@@H]2C(=O)N(C3CCCCC3)C(=O)[C@@H]2[C@H]2C=CC=NN21,60,1
Cc1ccc(NC2CCCN(C(=O)c3scnc3C)C2)cc1C (stereo not drawn),7,20
CCN(CC)C(=O)c1sc(NC(=O)c2ccc3c(c2)OCO3)c(C(=O)OC(C)C)c1C,-6,-4
CC(C)NC(=O)N(Cc1cccc(Cl)c1)CC1CC(c2ccccc2Cl)=NO1 (stereo not drawn),11,9
O=C(Cc1csc(Nc2cccc(C(F)(F)F)c2)n1)NCC1CCCO1 (stereo not drawn),-1,8
CNC(=O)[C@@]1(OCc2ccccc2F)CC(OCc2cccc(OC(F)(F)F)c2)[C@H](O)[C@H](O)C1 (stereo partly drawn),16,5

molecule,NPYLR7 ag max-min,NPYLR7 ag
O=C(NCc1ccncc1)C1CNCCN1C(=O)C1CCCCCC1 (stereo not drawn),2,3
CCC(C)NC(=O)C(C)NC(=O)NC/C=C/c1ccccc1 (stereo not drawn),0,2
CN(C)S(=O)(=O)c1ccc2c(c1)CCN2C(=O)C12CCC(=O)N1c1ccccc1S2 (stereo not drawn),3,4
CCCNC(=O)NC(C)C1c2cc(OC)c(OC)cc2CCN1Cc1cccc(C)c1 (stereo not drawn),7,2
Cc1nc(NC(=O)CCCNC(=O)OCc2ccccc2)n[nH]1,-1,-1
CC(=O)N[C@H]1CCN(c2ccnc(C(=O)NCc3ccccn3)c2)C1,4,8
Cc1ccc(C(=O)N2CCCN(Cc3cccs3)CC2)c(=O)[nH]1,6,12
COCCNC(=O)Cn1c(=O)n(-c2ccc(F)cc2F)c(=O)c2ccc(Cl)cc21,33,25
CN1C(=O)NC(c2ccccc2C(F)(F)F)C2=C1CN(CC(=O)Nc1ccc(Oc3ccccc3)cc1)C2=O (stereo not drawn),9,1
CN1CCN(c2cc(C(F)(F)F)nc(SCc3ccc(C(=O)NCc4ccncc4)cc3)n2)CC1,-3,-11
CCn1c(C)c(C)n2c3c(=O)n(Cc4ccc(C)cc4)c(=O)n(C)c3nc12,7,-2
CCOc1ccc(S(=O)(=O)N2CCOCC2)cc1NC(=O)CCl,-9,-7

# One compound at a time (already shown). Values in the order: NPYLR7 ag max-min | NPYLR7 ag
# Shown for `COCCNC(=O)Cn1c(=O)n(-c2ccc(F)cc2F)c(=O)c2ccc(Cl)cc21` → 33 | 25
# Shown for `Cc1nc(NC(=O)CCCNC(=O)OCc2ccccc2)n[nH]1` → -1 | -1
# Shown for `CN1CCN(c2cc(C(F)(F)F)nc(SCc3ccc(C(=O)NCc4ccncc4)cc3)n2)CC1` → -3 | -11
# Shown for `CCOc1ccc(S(=O)(=O)N2CCOCC2)cc1NC(=O)CCl` → -9 | -7
# Shown for `CCCNC(=O)NC(C)C1c2cc(OC)c(OC)cc2CCN1Cc1cccc(C)c1` (stereo not drawn) → 7 | 2

# Following part.
molecule,NPYLR7 ag max-min,NPYLR7 ag
CCCn1c(=O)c2c(nc3n2CCCN3c2ccc(C)cc2)n(C)c1=O,-2,3
OCC1(Cc2cccc(C(F)(F)F)c2)CCN(c2ccc3ccccc3n2)CC1,9,13
O=C(c1ccccc1OC(F)(F)F)N1CC(=O)N2CCc3ccc(Cl)cc3C2C1 (stereo not drawn),12,28
Cn1nccc1-c1coc2c(C(=O)NCC3CCOCC3)cccc12,-1,4
C=CCCC(=O)N1[C@@H](c2ccco2)[C@@H](C(=O)NC)C[C@]12CCCCN(C)C2=O,11,5
N[C@@H](Cn1ccc(=O)n(Cc2ccccc2C(=O)O)c1=O)C(=O)O,-9,3
O=C(Nc1ccccc1)c1ccc(N(CCO)CC2CC2)nn1,29,1
Cc1nc(CCNS(=O)(=O)NCc2ccccc2)sc1C,3,17
CC(C)c1ccccc1OCC(O)CN1CCN(S(=O)(=O)c2ccc(F)cc2)CC1 (stereo not drawn),8,9
CN(Cc1ccccc1)C1(C(=O)N[C@H]2CCCCNC2=O)Cc2ccccc2C1,7,17
COc1cn(CC(=O)Nc2ccccc2F)c(CN2CCC(C)CC2)cc1=O,-2,-1
O=S(=O)(/C=C/c1ccccc1)Nc1c(F)cccc1F,-7,-9

molecule,NPYLR7 ag max-min,NPYLR7 ag
Cc1ccc(F)cc1-n1ccnc1C1CCOC1 (stereo not drawn),0,0
COc1ccccc1COn1c(=O)c(-c2cccc(Cl)c2)[n+]([O-])c2ccccc21,-10,-10
CCCCC(=O)Nc1c(-c2ccc(OC)c(OC)c2)nc2ccc(C)cn12,-2,-5
Cc1ccccc1-n1cc(CN(C)C(=O)Cn2cccnc2=O)cn1,-11,-8
CC(C)(C)CCNC(=O)CS(=O)(=O)c1ccccc1Cl,5,6
Cc1ccc2nc(NC(=O)CSc3nnc4ccc(-c5ccncc5)nn34)sc2c1,-5,-13
Cc1nc2n(n1)C(=O)C(C(c1ccco1)N1CCN(C)CC1)S2 (stereo not drawn),1,4
Cc1ccc2[nH]c(C(=O)N3CCC(n4nccc4NC(=O)CC(C)C)CC3)cc2c1,9,14
COc1ccc(C(=O)Nc2c(C)nc3c(C)cccn3c2=O)cc1OC,1,4
Cc1ccsc1CN(Cc1ccccc1)C(=O)CN(CC(C)C)C(=O)C(C)(C)CCl,-3,-4
CCCc1cc(Nc2ccc(OC)cc2)n2nc3nc(C)cc(C)c3c2n1,45,1
O=C(NCc1ccccc1Cn1cccn1)C1CCC(=O)N(CCN2CCOCC2)C1 (stereo not drawn),1,4

# Single entries from the list:
# CC(C)(C)CCNC(=O)CS(=O)(=O)c1ccccc1Cl @ NPYLR7 ag max-min = 5
# Cc1ccsc1CN(Cc1ccccc1)C(=O)CN(CC(C)C)C(=O)C(C)(C)CCl @ NPYLR7 ag = -4
# CCCCC(=O)Nc1c(-c2ccc(OC)c(OC)c2)nc2ccc(C)cn12 @ NPYLR7 ag max-min = -2
# COc1ccccc1COn1c(=O)c(-c2cccc(Cl)c2)[n+]([O-])c2ccccc21 @ NPYLR7 ag = -10

# Following part:
molecule,NPYLR7 ag max-min,NPYLR7 ag
COc1ccc(CC(=O)N(Cc2ccc(OC)c(OS(C)(=O)=O)c2)C(C)C)cc1,5,0
CN1CCn2nc(C(=O)N[C@@H](Cc3ccccc3)C(N)=O)cc2C1,9,26
Nc1nnc(C2CCC(=Cc3ccccc3)C2=O)s1 (stereo not drawn),7,1
CCCCOCCOCC(=O)N1CCC(n2cnc3ccc(C)cc32)CC1,-8,-4
COc1cccc(-c2nnc3n2N=C(c2ccc(O)c(O)c2)CS3)c1,-2,0
CCOCCOC(=O)C1=C(C)NC2=C(C(=O)CCC2)C1c1cc(OC)c(OC)c(OC)c1 (stereo not drawn),-14,-10
CN(C)c1nc(-c2ccccc2)nc2c1CN(C(=O)c1cc(C(F)(F)F)cc(C(F)(F)F)c1)CC2,7,-2
CN(C)CCCNc1nc2cc(-c3ccn[nH]3)sc2c(=O)n1C,4,11
Cc1ccc(N2CC(C(=O)Nc3ccnn3C(C)C)CC2=O)c(F)c1 (stereo not drawn),-3,-2
Cc1cc2c(c(=O)o1)C(c1ccncc1)C(C#N)=C(N)O2 (stereo not drawn),-4,2
CCN1CCN(C2CCN(C(=O)C3CCC(=O)N(Cc4ccccc4F)C3)CC2)CC1 (stereo not drawn),4,5
CN(C)c1ccc(CN2C[C@H](Oc3ccccn3)[C@H]3C[C@@H]2Cc2c3[nH]c3ccccc23)cc1,24,27

molecule,NPYLR7 ag max-min,NPYLR7 ag
CN(Cc1ccc2nsnc2c1)Cc1nc(COc2ccccc2)no1,12,5
CCCc1cnc(C)nc1N1CCN(Cc2cccc3[nH]ccc23)CC1,8,9
CCOC(=O)c1ccc2c(c1)nc(SCc1ccccc1Cl)n2CCOC,-2,2
CCCCCCCCS(=O)(=O)N1CCC[C@@H]1C(=O)NC1CCC(NC(=O)c2ccccc2)CC1 (stereo partly drawn),18,22
Cc1ccc(S(=O)(=O)Nc2cccnc2Cl)s1,7,9
Cc1nc2c(o1)CCc1ccccc1C2O (stereo not drawn),-6,-1
COCCNC(=O)c1ccc(CSc2nnc(-c3ccco3)n2-c2ccccc2OC)cc1,11,8
COc1cc(C#N)ccc1OCCCC(=O)N1CCCc2cc(F)c(F)cc21,0,4
CCSc1nnc(SCc2cc(=O)oc3cc4c(cc23)CCC4)s1,13,6
COC(=O)C1=C(C)N(C)C(=O)NC1c1ccc([N+](=O)[O-])s1 (stereo not drawn),0,3
C=CCOCC(CC)(COCC=C)COC(=O)N1CCC2(CC1)CC(=O)c1cc(Cl)c(C)cc1O2,-11,-6
Cc1noc(C)c1CCC(=O)NC1CCCN(c2ccc(C(F)(F)F)cn2)C1 (stereo not drawn),-1,4

# Compounds listed so far that have a tert-butyl group, in the order listed:
molecule,NPYLR7 ag max-min,NPYLR7 ag
C=CCN(CC(=O)N1CCc2sccc2C1c1ccc(C(C)(C)C)cc1)S(=O)(=O)c1ccc(OC)cc1 (stereo not drawn),21,23
CC(C)(C)C(=O)[C@@H]1[C@@H]2C(=O)N(C3CCCCC3)C(=O)[C@@H]2[C@H]2C=CC=NN21,60,1
CC(C)(C)CCNC(=O)CS(=O)(=O)c1ccccc1Cl,5,6

# (cont.)
molecule,NPYLR7 ag max-min,NPYLR7 ag
CCn1c(C2CCCN(Cc3cn[nH]c3C3CCCCC3)C2)n[nH]c1=O (stereo not drawn),0,0
CC1CN(C(=O)C(C)(C)c2cccc(C#N)c2)CC1N1CCOCC1 (stereo not drawn),3,9
CN1CCCC(NC(=O)C2c3ccccc3Oc3ccccc32)C1 (stereo not drawn),3,5
Cc1cc(C)c2c(-c3ccc(F)cc3)c(C#N)c(=O)n(C)c2n1,-6,-2
